From PubChem
TRPV1 potentiator: potentiators of human vanilloid receptor 1 (TRPV1). 320,000 compounds, 0.02% hits. Q8NER1. potentiation, % at 8.33 µM. TRPV1-expressing cells, Fluo-8 calcium influx, capsaicin EC20 potentiation; host cell line not named in the record; control for the full effect not named in the record; active means potentiation above 80%; inconclusive means 30% to 80%; inactive means below 30%; note: 0% is about no effect
Target sequence (Q8NER1 whole entry, looked up): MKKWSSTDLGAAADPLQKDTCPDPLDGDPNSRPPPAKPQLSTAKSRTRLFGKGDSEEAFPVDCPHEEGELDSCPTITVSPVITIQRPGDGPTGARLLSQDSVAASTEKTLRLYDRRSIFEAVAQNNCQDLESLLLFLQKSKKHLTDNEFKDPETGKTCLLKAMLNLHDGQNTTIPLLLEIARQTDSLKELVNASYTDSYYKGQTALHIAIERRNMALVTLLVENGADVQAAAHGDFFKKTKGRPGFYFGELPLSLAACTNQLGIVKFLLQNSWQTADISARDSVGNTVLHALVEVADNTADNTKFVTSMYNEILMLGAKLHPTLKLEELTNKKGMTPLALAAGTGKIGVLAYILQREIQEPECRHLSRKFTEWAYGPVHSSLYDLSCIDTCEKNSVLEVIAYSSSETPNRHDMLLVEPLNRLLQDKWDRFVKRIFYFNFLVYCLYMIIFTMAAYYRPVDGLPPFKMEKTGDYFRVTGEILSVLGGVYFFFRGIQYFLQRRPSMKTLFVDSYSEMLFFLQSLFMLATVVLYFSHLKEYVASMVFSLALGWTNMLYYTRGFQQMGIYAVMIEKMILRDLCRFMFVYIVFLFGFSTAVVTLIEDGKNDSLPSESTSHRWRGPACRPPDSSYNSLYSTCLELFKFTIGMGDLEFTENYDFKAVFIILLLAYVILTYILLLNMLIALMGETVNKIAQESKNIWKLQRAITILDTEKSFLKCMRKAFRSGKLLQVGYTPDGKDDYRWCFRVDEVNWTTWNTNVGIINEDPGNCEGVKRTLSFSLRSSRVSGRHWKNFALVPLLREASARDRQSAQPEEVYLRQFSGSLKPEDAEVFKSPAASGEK
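Fluo-8 calcium influx in TRPV1-expressing cells, kinetic read (ex 480/em 520 nm). Compound added and read 3 min for agonist activity, followed by capsaicin at EC20 final and 2 min further read for enhancement.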
gsp agonist: activates gsp, the McCune-Albright syndrome mutation. gsp mutant cells, cAMP HTRF, 30 min; control for the full effect not named in the record. Potency, µM (top dose mostly 76.9 µM), for inactives: at the top dose activation (cAMP increase), hits mostly activators. 340,000 compounds, 0.13% hits; active = well fitted activation curve with a large enough effect; inconclusive = small, poorly fitted or top-dose-only effect, or another doubt; inactive = no such curve, though single readings can be large or run the other way; cell line not stated here;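 note: phosphodiesterase inhibitor Ro 20-1724 added with compounds to block cAMP breakdown; potency is the fitted concentration of half-maximal effect; nearly all actives have a fitted effect of over 60% in size; about a fifth of the inactives were tested at one dose only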
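Cells in DMEM/10% FBS with G418 were pretreated with compounds in DMSO plus […] (300 uM stock) for 30 min at 37C. cAMP was measured by HTRF (cAMP-d2 plus anti-cAMP antibody-K) after 30 min at room temperature.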
Sfp inh: Sfp phosphopantetheinyl transferase inhibition. Q9F4F7. Biochemical Sfp PPTase activity, qHTS. Potency, µM, for the others: max response, negative = inhibition, hits mostly inhibitors. 310,000 compounds, 3.5% hits. AID 1490; active = well fitted inhibition curve with a large enough effect; inconclusive = small, poorly fitted or top-dose-only effect, or another doubt; inactive = no such curve, though single readings can be large or run the other way;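 note: the enzyme is Sfp with the accession as filed and its product quenches rhodamine fluorescence; potency is the fitted concentration of half-maximal effect; 0% = enzyme reaction without inhibitor and -100% = no enzyme wells; top concentration of the series not given in the record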
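Fluorescence-quenching assay with 15 nM Sfp, 5 uM rhodamine-CoA and 12.5 uM BHQ-2-labelled ybbR peptide in pH 7.6 Hepes/MgCl2 buffer. Enzyme was pre-incubated with compound for 15 min at room temperature. Rate was taken from the 30-min fluorescence change (525/598 nm).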
ClpP mod: qHTS Assay for Activators of ClpP; 340,000 compounds, 1.9% hits; purified B. subtilis ClpP, FRET peptide cleavage, 20 min; Potency, µM (top dose mostly 57.5 µM), for the others: at the top dose activity change, negative = active; active = well fitted falling curve with a large enough effect; inconclusive = small, poorly fitted or top-dose-only effect; inactive = no such curve, though single readings can be large or run the other way; note: potency is the fitted concentration of half-maximal effect; the source files actives as falling curves though it sought activators and does not explain the sign; nearly all actives have a fitted effect of over 65% in size; many hits overshoot -100%
Target sequence (P80244 whole entry, looked up): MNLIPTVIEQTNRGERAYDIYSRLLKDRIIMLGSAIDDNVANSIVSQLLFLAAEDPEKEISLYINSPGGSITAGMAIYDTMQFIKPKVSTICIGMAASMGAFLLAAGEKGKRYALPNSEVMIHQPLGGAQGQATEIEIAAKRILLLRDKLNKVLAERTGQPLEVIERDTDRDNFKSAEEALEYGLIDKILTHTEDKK
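ClpP 10 microg/mL final, pH 8 Tris/KCl buffer with BSA, glycerol, Tween-20; compound pinned in; FRET-FV substrate; RT 20 min; Ex320/Em430; ΔFRET vs ADEP 5.8 microM, DMSO, no enzyme.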
CtBP-E1A inh: inhibitors of CtBP/E1A interaction; 340,000 compounds, 0.49% hits; AlphaScreen GST-E1A/His-CtBP binding, 1536-well; stronger effect = lower value; control for the full effect not named in the record; activity change, % (no concentration beside the values); in the data active means activity change below about -65%; inconclusive means about -30% to -65%; inactive means above about -30%; note: % is set by controls: 0 for no effect and ±100 for the full control effect
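Homogeneous bead-based format: GST-tagged E1A captured on glutathione donor beads, His-tagged CtBP on nickel acceptor beads; compounds precede bead addition by 2 h at 37 °C.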
Menin-MLL FL inh: menin-MLL binding inhibition, fluorescein peptide; 290,000 tested, under 10 active; Fluorescence polarization, fluorescein-MLL peptide displacement from menin; FP activity change, % at 61.4 µM; inconclusive = falling polarisation curve, or a change in total fluorescence; inactive = total fluorescence flat and polarisation flat or rising; no compound was filed as active; the % refers to the polarisation; negative = inhibition;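 note: % of control where 0% means no effect; inhibitors lower the polarisation; unlabelled MLL peptide was the positive control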
gsp antag: antagonists of gsp mutant (McCune-Albright syndrome). 340,000 compounds, 0.4% hits. AID 624288. Potency, µM (highest dose often 76.9 µM), for inactives: at the top dose activity change, negative = inhibition, hits mostly inhibitors. gsp-mutant cells, cAMP HTRF, 30 min; control for the full effect not named in the record; active = falling curve of any shape with a large fitted effect; inconclusive = falling curve, mostly with a smaller effect; inactive = flat or rising curve; cell line not stated here;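 note: intracellular cAMP measured with PDE inhibitor Ro 20-1724 present during compound exposure; potency is the fitted concentration of half-maximal effect; % is set by controls: 0 for no effect and ±100 for the full control effect; nearly all actives have a fitted effect of over 65% in size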
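HTRF cAMP measurement after 30 min RT detection following 30 min, 37C compound treatment alongside […] (added as 300 uM solution) in G418-selected cells seeded at 2000/well and grown 16–24 h.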
Active calls of the source: *; u = inconclusive; x = not tested or not shown; [ ] = dose if it differs, or a comment.

Order of results – TRPV1 potentiator	gsp agonist	Sfp inh	ClpP mod	CtBP-E1A inh	Menin-MLL FL inh	gsp antag
- O=C(CCCNC(=O)c1ccc(Cl)cc1)OCc1cccc(Br)c1
→ -1	12%[15.4 µM]	x	x	23	x	1%
- O=C1CN(S(=O)(=O)c2ccc(Br)cc2)c2ccccc2N1
→ -10	u	10%	1.0%	7	0.9	2%
- O=[N+]([O-])c1ccc2c(c1)S(=O)c1ccccc1-2 (stereo not drawn)
→ -7	-12%[15.4 µM]	6%	-1.9%	0	2.0	-9%
- Cc1cc(=O)oc2c3c4c(cc12)OCCN4CCC3
→ -11	-25%	u	22µM*	-18	u	15%
- O=C(O)C1C2C=CC(C2)C1C(=O)NCc1cccnc1 (stereo not drawn)
→ 19	-35%	11%	-0.4%	12	-5.5	9%
- COC(=O)c1cc(CNC(=O)CC(C)c2ccccc2)ccc1OC (stereo not drawn)
→ -18	-21%[15.4 µM]	13%	x	2	1.4	-7%
- COc1nnc(-c2ccc(C)c(S(=O)(=O)NCC3CCCO3)c2)c2ccccc12 (stereo not drawn)
→ 4	11%	6%	x	u	x	0%
- Cc1ccccc1CNC1CCCCC1
→ 4	6%	6%	-2.1%	18	2.7	17%
- O=C(Cc1cccc(NC(=O)C2CCCN(C(=O)C3CCCC3)C2)c1)Nc1ccc(C(=O)N2CCCCC2)cc1 (stereo not drawn)
→ x	x	x	0.2%	1	x	-7%
- Cc1ccc(S(=O)(=O)Cc2cccc(C(=O)N3CCOCC3)c2)cc1
→ u	14%	-5%	0.3%	7	5.6	5%
- Cc1cccnc1NC1OC(=O)c2ccccc21 (stereo not drawn)
→ 5	-6%	1%	-27%	6	0.6	-3%
- COc1cccc(CNC(=O)c2ccc(OC)c(S(=O)(=O)NC3CCCC3)c2)c1
→ -2	-5%	x	1.5%	-2	x	-15%
- COc1ccccc1C1=NOC(COC(=O)c2ccc3ccccc3n2)C1 (stereo not drawn)
→ 26	16%	4%	0.0%	8	1.5	0%
- CCCCNC(=O)Cn1c(=O)oc2cc(S(=O)(=O)N3CC(C)CC(C)C3)ccc21 (stereo not drawn)
→ -20	-13%	18%	1.9%	1	4.4	-1%
- O=C(Cc1ccc(-n2c(=O)[nH]c3ccccc3c2=O)cc1)N1CCN(c2cccc(Cl)c2)CC1
→ 1	-5%	17%	-2.4%	0	2.4	-11%

(list continues)
Order of results – TRPV1 potentiator	gsp agonist	Sfp inh	ClpP mod	CtBP-E1A inh	Menin-MLL FL inh	gsp antag
- Cc1cc2c(c(SCC(=O)N(C)c3ccccc3)n1)C(=O)OC2
→ 14	u	3%	-4.5%	-2	0.3	-6%
- COc1ccc(CCNC(=O)C(=O)Nc2nccs2)cc1OC
→ 0	18%	-26%	0.7%	2	-12	4%
- CN1CCN(S(=O)(=O)c2cccc(C(=O)Nc3nccs3)c2)CC1
→ 3	-1%[15.4 µM]	5%	x	-20	2.0	5%
- Cn1c(SCC(=O)NNC(=O)c2ccc(Br)cc2)nnc1-c1cccnc1
→ 11	7%	11%	-1.1%	x	5.7	7%
- COc1ccccc1N(CC(=O)NCCN1CCOCC1)S(=O)(=O)c1ccccc1
→ -2	-21%	19%	x	-1	2.4	4%
- CCc1cccc(CC)c1NC(=O)COC(=O)c1ccccc1-c1nc2ccccc2s1
→ -1	-2%	3%	u	-3	5.3	-8%
- Cn1c(N)c(C(=O)NCc2ccccc2)sc1=S
→ -3	u	22µM*	-0.2%	-2	-1.0	9%
- Cn1c(=S)c2[nH]c(SCc3cccnc3)nc2n(C)c1=O
→ x	28%	x	-1.7%	-22	x	2%
- Nc1ccccc1C#Cc1ccc2[nH]ccc2c1
→ x	0%	x	4.5%	x	x	5%
- CS(=O)(=O)c1ccc(-c2cccc(NC(=O)COc3ccccc3)c2)nn1
→ 7	38%	6%	x	0	-2.5	8%
- COc1ccc(N(CC(=O)Nc2cc(C)ccc2OC)S(=O)(=O)c2c(C)noc2C)cc1
→ 7	-8%	6%	0.9%	-1	1.6	-19%
- Cc1ccc(Oc2nc(CN3CCOCC3)nc3sc4c(c23)CCC(C)C4)cc1 (stereo not drawn)
→ -5	-28%	u	0.8%	-3	-1.0	-8%
- CC(O/N=C(\N)c1ccccc1)C(=O)Nc1cccc(C(F)(F)F)c1 (stereo not drawn)
→ x	7%	x	0.6%	10	x	1%
- CC(OC(=O)Cc1n[nH]c(=O)c2ccccc12)C(=O)N(C)c1ccccc1 (stereo not drawn)
→ x	-62%	x	-1.6%	2	x	x
- CCOC(=O)NC(NCc1cccc(C(F)(F)F)c1)(C(F)(F)F)C(F)(F)F
→ -4	-56%[inhibitor]	11%	u	6	2.5	-2%

Single records, from the list above. Screens in order: TRPV1 potentiator, gsp agonist, Sfp inh, ClpP mod, CtBP-E1A inh, Menin-MLL FL inh, gsp antag
Shown for `Cc1ccc(Oc2nc(CN3CCOCC3)nc3sc4c(c23)CCC(C)C4)cc1` (stereo not drawn) → -5, -28%, u, 0.8%, -3, -1.0, -8%
Shown for `COC(=O)c1cc(CNC(=O)CC(C)c2ccccc2)ccc1OC` (stereo not drawn) → -18, -21%[15.4 µM], 13%, x, 2, 1.4, -7%

Continued.
Order of results – TRPV1 potentiator	gsp agonist	Sfp inh	ClpP mod	CtBP-E1A inh	Menin-MLL FL inh	gsp antag
- Cn1c(C(C(=O)NCC2CCCO2)N(C(=O)Cn2nnc3ccccc32)C2CCCCC2)nc2ccccc21 (stereo not drawn)
→ -16	-15%	-5%	-1.6%	7	-1.2	3%
- CC(C)C1=NN(C(=O)c2ccccc2)C(O)(C(C)(C)C)C1 (stereo not drawn)
→ 15	10%	5%	u	0	1.9	3%
- O=C(NCc1ccccc1)C1=C[C@H](C2CC2)C[C@H](OCCCCO)O1
→ 30	23%	11%	0.2%	7	0.6	-3%
- COCCc1nnc(NC(=O)C(C)C)s1
→ 7	-7%[15.4 µM]	18%	x	-9	0.8	3%
- Cc1nc(CSc2ccccc2)cc(=O)[nH]1
→ -5	u	10%	-1.9%	1	-1.5	9%
- COC(=O)/C(=C\Nc1ccccc1N)c1ncc(C(F)(F)F)cc1Cl
→ -18	-34%[inhibitor]	4%	39%	0	-0.8	1%
- CCCCCCCc1ccc(C2NC(=S)NC3=C2C(=O)c2ccccc23)cc1 (stereo not drawn)
→ -1	26%	14%	-0.6%	-3	0.5	1%
- Cc1ccc(-c2c[n+](CC(=O)Nc3nc(-c4ccc(F)cc4)cs3)c3n2CCC3)cc1
→ -4	-76%[inhibitor]	u	-0.6%	0	0.1	9%
- CCC(C)NC(=O)c1cc2cc3ccc(OC)cc3nc2s1 (stereo not drawn)
→ 9	8%	-8%	10µM*	u	-0.1	6%
- COc1ccc(CCNC(=O)[C@@H](NC(N)=O)C(C)C)cc1
→ 4	13%	18%	-0.8%	x	-1.3	5%
- Cn1ccnc1SCCNC(=O)CCc1nnc(CCc2ccccc2)o1
→ -12	2%	-5%	x	-1	1.4	-6%
- CN1/C(=C\C(=O)C[n+]2ccc3ccccc3c2)C(C)(C)c2ccccc21
→ 2	22%	-5%	x	-1	6.2	12%
- CCOc1cccc2sc(N(CCN(CC)CC)C(=O)c3ccc(S(=O)(=O)N4CCCCC4)cc3)nc12
→ -3	-30%	2%	0.5%	x	-1.1	12%
- Cc1ccc2[nH]c(=O)c(CN(CC3CCCO3)C(=S)NCc3ccco3)cc2c1 (stereo not drawn)
→ 18	7%	-5%	-16%	-7	-1.5	-7%
- c1ccc2sc(-c3ccc4c(c3)OCO4)nc2c1
→ -2	17%	-5%	1.6%	28	0.1	-3%

A few values from the list:
`COCCc1nnc(NC(=O)C(C)C)s1` – Menin-MLL FL inh = 0.8
`Cn1ccnc1SCCNC(=O)CCc1nnc(CCc2ccccc2)o1` – gsp antag = -6%
`CC(C)C1=NN(C(=O)c2ccccc2)C(O)(C(C)(C)C)C1` (stereo not drawn) – TRPV1 potentiator = 15
`Cc1ccc(-c2c[n+](CC(=O)Nc3nc(-c4ccc(F)cc4)cs3)c3n2CCC3)cc1` – Menin-MLL FL inh = 0.1
`Cc1nc(CSc2ccccc2)cc(=O)[nH]1` – TRPV1 potentiator = -5

The results go on.
Order of results – TRPV1 potentiator	gsp agonist	Sfp inh	ClpP mod	CtBP-E1A inh	Menin-MLL FL inh	gsp antag
- CN(C)c1ccc(C2Nc3ccccc3C(=O)N2NS(C)(=O)=O)cc1 (stereo not drawn)
→ 1	u	5%	-12%	-16	4.4	1%
- CC1S/C(=N/N=C2CCCCC2)NC1=O (stereo not drawn)
→ 0	-44%[inhibitor]	-16%	2.1%	-15	-1.5	16%
- CCn1c(=O)c(C(=O)NNC(=O)c2cccc(Cl)c2)c(O)c2ccccc21
→ 8	-8%	19%	x	-1	0.1	14%
- Clc1ccc(CN=C2Nc3ccccc3CS2)cc1
→ 14	-20%	-1%	-2.4%	8	-1.1	4%
- CCCCn1c(CCC(=O)O)nc2cc(S(=O)(=O)N3CCCC3)ccc21
→ x	4%	x	-2.5%	-7	x	6%
- COc1ccc(NC(=O)CN(C)C(=O)c2cccc(S(=O)(=O)N3CC4(C)CC3CC(C)(C)C4)c2)cc1 (stereo not drawn)
→ 5	16%[15.4 µM]	x	x	1	x	-17%
- CN(C)c1ccnc2sc3c(=O)n(-c4ccccc4)cnc3c12
→ 4	18%	19%	-19%	1	5.4	0%
- Cc1cc(C)c2c3c(sc2n1)C(=O)N(c1ccccc1)CC(=O)N3
→ -11	u	22%	x	7	2.5	0%
- Cc1ccc(C(C)C)c(OCCCn2ccnc2C)c1
→ 1	-5%[15.4 µM]	-24%	-1.1%	2	1.7	-8%
- O=C(CNC(=O)c1ccc(Br)cc1)Nc1ccc2c(c1)CCC2
→ x	4%	x	-1.4%	-2	x	2%
- O=C(N/N=C\c1c[nH]c2ccccc12)c1ccc(O)cc1
→ 1	-22%[15.4 µM]	6%	x	-12	0.0	-7%
